# nsP2pro primary: inhibitors of chikungunya virus nsP2 protease; Q8JUX6; FRET peptide cleavage, nsP2pro, fluorescence 1 h; Potency, µM (highest dose often 24.9 µM), for inactives: at the top dose activity change, negative = inhibition, actives largely listed as inhibitors; 1.1% of 31,000 active; AID 1964107; active means well fitted inhibition curve with a large enough effect; inconclusive means small, poorly fitted or top-dose-only effect; inactive means no such curve, though single readings can be large or run the other way; note: nearly all actives have a fitted effect of over 60% in size; a reference inhibitor and vehicle were the controls
# Target sequence (Q8JUX6 whole entry, looked up): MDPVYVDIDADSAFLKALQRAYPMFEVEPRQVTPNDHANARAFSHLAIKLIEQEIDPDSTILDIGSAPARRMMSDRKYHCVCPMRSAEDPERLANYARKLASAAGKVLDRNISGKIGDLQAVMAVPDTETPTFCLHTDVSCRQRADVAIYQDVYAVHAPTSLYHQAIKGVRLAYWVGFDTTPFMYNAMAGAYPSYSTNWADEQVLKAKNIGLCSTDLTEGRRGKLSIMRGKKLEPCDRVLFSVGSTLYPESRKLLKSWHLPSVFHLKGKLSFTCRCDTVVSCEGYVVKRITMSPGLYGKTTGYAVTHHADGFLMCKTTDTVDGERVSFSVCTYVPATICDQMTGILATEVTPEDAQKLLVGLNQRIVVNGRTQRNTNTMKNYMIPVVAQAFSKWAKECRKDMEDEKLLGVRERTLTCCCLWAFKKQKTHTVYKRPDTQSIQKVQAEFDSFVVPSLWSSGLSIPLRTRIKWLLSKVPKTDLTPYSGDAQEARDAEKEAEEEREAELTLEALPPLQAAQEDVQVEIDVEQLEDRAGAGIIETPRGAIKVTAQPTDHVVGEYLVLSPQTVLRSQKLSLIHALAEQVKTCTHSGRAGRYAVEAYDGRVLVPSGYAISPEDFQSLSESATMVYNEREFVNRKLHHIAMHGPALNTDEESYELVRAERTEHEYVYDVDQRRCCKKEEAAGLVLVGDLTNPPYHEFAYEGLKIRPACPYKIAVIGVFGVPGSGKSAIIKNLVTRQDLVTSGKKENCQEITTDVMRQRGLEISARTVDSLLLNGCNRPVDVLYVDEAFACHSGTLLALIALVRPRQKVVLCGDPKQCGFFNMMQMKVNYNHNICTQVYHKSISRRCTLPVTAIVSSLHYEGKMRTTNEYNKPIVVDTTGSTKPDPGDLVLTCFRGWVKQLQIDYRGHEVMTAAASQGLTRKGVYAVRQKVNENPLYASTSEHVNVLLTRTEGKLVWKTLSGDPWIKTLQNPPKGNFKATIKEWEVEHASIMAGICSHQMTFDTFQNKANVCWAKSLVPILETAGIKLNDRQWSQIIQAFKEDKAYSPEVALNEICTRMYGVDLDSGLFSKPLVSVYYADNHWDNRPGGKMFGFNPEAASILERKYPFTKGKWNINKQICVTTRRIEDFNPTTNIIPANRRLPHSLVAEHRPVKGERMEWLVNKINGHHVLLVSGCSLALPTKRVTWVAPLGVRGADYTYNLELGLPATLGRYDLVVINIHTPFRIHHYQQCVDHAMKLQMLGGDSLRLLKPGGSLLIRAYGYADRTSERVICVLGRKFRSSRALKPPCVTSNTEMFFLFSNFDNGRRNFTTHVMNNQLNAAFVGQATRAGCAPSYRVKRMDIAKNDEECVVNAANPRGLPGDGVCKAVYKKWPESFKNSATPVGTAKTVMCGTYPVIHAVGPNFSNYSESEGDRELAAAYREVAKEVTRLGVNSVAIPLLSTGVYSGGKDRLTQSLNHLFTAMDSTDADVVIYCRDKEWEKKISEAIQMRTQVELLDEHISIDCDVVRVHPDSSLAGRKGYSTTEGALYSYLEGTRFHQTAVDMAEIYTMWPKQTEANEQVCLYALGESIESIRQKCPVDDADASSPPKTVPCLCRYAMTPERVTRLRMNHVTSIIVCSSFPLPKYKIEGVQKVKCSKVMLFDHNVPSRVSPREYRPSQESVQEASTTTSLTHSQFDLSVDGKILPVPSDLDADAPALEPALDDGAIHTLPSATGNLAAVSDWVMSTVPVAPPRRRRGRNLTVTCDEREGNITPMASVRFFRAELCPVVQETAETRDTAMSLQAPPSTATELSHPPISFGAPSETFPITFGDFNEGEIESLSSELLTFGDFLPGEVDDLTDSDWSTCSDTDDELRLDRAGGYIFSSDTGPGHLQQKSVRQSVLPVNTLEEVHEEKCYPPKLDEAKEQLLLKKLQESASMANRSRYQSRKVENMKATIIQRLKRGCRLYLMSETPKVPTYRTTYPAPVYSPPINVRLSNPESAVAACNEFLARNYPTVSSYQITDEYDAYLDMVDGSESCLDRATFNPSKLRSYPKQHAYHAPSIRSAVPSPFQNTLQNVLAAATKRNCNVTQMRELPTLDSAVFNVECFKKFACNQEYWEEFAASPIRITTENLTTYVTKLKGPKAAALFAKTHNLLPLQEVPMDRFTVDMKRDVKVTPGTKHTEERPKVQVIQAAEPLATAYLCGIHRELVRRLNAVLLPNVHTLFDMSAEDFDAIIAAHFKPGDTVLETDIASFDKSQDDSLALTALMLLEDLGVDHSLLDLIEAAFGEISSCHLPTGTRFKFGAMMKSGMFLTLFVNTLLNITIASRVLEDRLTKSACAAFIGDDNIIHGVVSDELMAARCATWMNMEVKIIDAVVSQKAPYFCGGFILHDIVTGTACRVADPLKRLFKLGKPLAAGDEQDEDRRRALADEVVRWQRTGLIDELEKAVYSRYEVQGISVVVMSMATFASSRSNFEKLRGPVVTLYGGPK
# * hit, by the source's call; i = inactive; ? = inconclusive; & = joins results of further samples; [ ] = remark or other dose. % is set by controls: 0 for no effect and ±100 for the full control effect; potency is the fitted concentration of half-maximal effect.
SMILES,nsP2pro primary
Cc1cc(C(=O)NC2CCCC2)c2c(C3CCNC3)noc2n1 (stereo unspecified),-16.4%
CCOc1ccc(NC(=O)C(=O)NCCc2ccccc2)cc1,-19.3%
CC(O)/C=C/C1C(C)C(O[C@@H]2O[C@H](CO)[C@@H](O)[C@H](O)[C@H]2O)C(O)CC1(C)C (stereo partly specified),29.7%
COc1cc(Cl)c(C)cc1NC(=O)CCc1nc2cccnc2n1-c1ccccc1,-12.0%
Cc1noc(C)c1S(=O)(=O)N1CCC2(CC1)CC1C(=O)NCCN1C2 (stereo unspecified),-8.0%
O=C(Nc1ccccc1)C1CCN(c2nc(-c3ccc(Br)cc3)cs2)CC1,i
CCN(CC)CCCn1c(-c2ccccc2)nc2c(N3CCOCC3)nc(C)nc21,-1.8%
COc1ccc(-c2nc(SCC(=O)NCC3CCCO3)c(-c3ccc(Cl)cc3)[nH]2)cc1 (stereo unspecified),-5.5%
CCn1cc(CN2CC[C@H](CNC(=O)COC)[C@H](N(C)C)C2)c(C)n1,0.6%
CC(C)c1ccc(CN2CCCC3(CCN(S(C)(=O)=O)C3)C2=O)cc1 (stereo unspecified),4.7%
Cc1cccc(CNC(=O)C2CC(c3ccc(F)c(C)c3)CN(C(=O)c3ccccc3)C2)c1 (stereo unspecified),i
CO[C@@H]1[C@]2(O)C(=O)N3/C=C\C(C)(C)c4[nH]c5ccccc5c4/C=C\3C(=O)N2[C@]23[C@H](CO)C(C)(C)N2c2ccccc2[C@]13O,?
O=c1[nH]nc(OCCCc2ccc(Cl)cc2)c(NCc2cccnc2)c1Br,9.1%
CC(C)c1ccc2occ(CC(=O)N(Cc3ccc(F)cc3)C3CCS(=O)(=O)C3)c2c1 (stereo unspecified),-6.8%
Cc1ccccc1C(=O)N1CCc2cc(-c3nc(NC(=O)Cc4ccc5c(c4)OCCO5)sc3C)ccc21,-11.1%

# Molecules from the list above containing an aryl methoxy group:
SMILES,nsP2pro primary
COc1cc(Cl)c(C)cc1NC(=O)CCc1nc2cccnc2n1-c1ccccc1,-12.0%
COc1ccc(-c2nc(SCC(=O)NCC3CCCO3)c(-c3ccc(Cl)cc3)[nH]2)cc1 (stereo unspecified),-5.5%

# Next compounds follow.
SMILES,nsP2pro primary
Cc1ccc(OCCn2c(CCNC(=O)c3cccc(NC(=O)OC(C)(C)C)c3)nc3ccccc32)cc1,i
Cc1nc2nc(NC(=O)C(C)(C)C)[nH]n2c(=O)c1Cc1ccccc1,-20.3%
COc1ccc(-c2nnc(SCC(=O)N(C)Cc3ccccc3)o2)cc1OC,-18.4%
COC(=O)CC1(O)C(=O)Nc2ccccc21 (stereo unspecified),?
Cc1ccc(-c2cc3ncc(C(=O)c4cc(Cl)c(C)cc4O)cn3n2)cc1,-21.6%
CN(C)C[C@@H]1CN(C2CCOCC2)C[C@H]1NC(=O)C1CC=CCC1 (stereo partly specified),-12.1%
Cn1c(=O)n(CC(=O)O)c(=O)c2c1nc1n2CCCN1c1ccc(Cl)cc1,-11.6%
COc1ccc(C2N=C(Nc3nc4ccccc4o3)NC3=C2C(=O)CCC3)cc1 (stereo unspecified),?
Cc1ccc(N(C)C(=O)Cn2cc(S(=O)(=O)N3CCCC3)c(S(=O)(=O)N3CCCC3)c2)cc1,6.5%
CCOC(=O)C1CCN(C(=O)CSc2c3c(nc4ccc(Cl)cc24)CCCC3)CC1,-9.6%
CC(=O)Nc1ccc(C2(C(=O)NCc3ccc(F)cc3)CCC2)cc1,i
CCOCCCNC(=O)C(c1ccc(OC)cc1)N(Cc1cccs1)C(=O)CNC(C)=O (stereo unspecified),-10.0%
CNC(=O)N1CCC(C2CCN(C(=O)c3cccs3)C2)CC1 (stereo unspecified),-3.0%
NC1CCc2n[nH]c(=O)n2CC1 (stereo unspecified),4.7%
COc1ccc(C(=O)Nc2sc3c(c2C(N)=O)CCCC3)cc1OC,-2.0%
CC(O)C(=O)/C=C/C=C/C(=O)OC1C=C2COC(=O)C2(O)C2(C)CCCC(C)(C)C12 (stereo unspecified),-5.0%[10 µM]
Cc1cc(-c2nnc3n2CCCCC3)c(C)n1-c1ccncc1,-16.8%
COc1cccc(CN2CCN(C(=O)c3cnc4ccccn4c3=O)CC2=O)c1,i
CCOC(=O)[C@H](CCc1ccccc1)N[C@@H](C)C(=O)N1[C@H](C(=O)O)C[C@@H]2CCC[C@@H]21,?
O=[N+]([O-])c1ccc(-c2nc(-c3ccc(F)cc3)c(-c3ccncc3)[nH]2)cc1,39.2%
CCC1CC2CN3CCc4c([nH]c5ccccc45)C(C(=O)OC)(C2)C13 (stereo unspecified),?
Cc1ccccc1NC(=O)C1CCC(CNS(=O)(=O)c2ccc3c(c2)C(C)(C)C(=O)N3C)CC1 (stereo unspecified),-12.4%
N#Cc1cnc(N[S+](=O)([O-])c2ccc(Nc3nc(-c4ccccc4)cs3)cc2)s1,-11.0%
C[C@@H]1C[C@H]2[C@@H]3C[C@H](F)C4=CC(=O)C=C[C@]4(C)[C@@]3(Cl)[C@@H](O)C[C@]2(C)[C@H]1C(=O)COC(=O)C(C)(C)C,-4.5%
COc1ccc(CC(=O)NC2CCN(c3nc4ncccc4o3)C2)cc1 (stereo unspecified),-8.0%[39.2 µM]
CNC(=O)[C@@H]1C[C@@H](n2cc(CNC(=O)Nc3ccc(Cl)cc3C)nn2)CN1,i
CC(=O)O[C@H]1[C@H](OC(=O)C(C)C)[C@]2(C)OC3(CC[C@]2(C)[C@H]2CCC[C@]4(CO4)[C@]12C)COC(=O)C3 (stereo partly specified),11.4%[10 µM]
CCOCCCNC(=O)N1CC2CN(CCOC)CC(C1)O2,-3.2%
COc1ccc(-c2cc(C[C@H]3CNCC[C@H]3CC(=O)N3CCN(C)CC3)no2)cc1,1.7%[39.2 µM]
COc1ccc(CC(=O)Nc2ccc3c(c2)CN(CCOc2ccccc2)C(=O)C(C)O3)cc1 (stereo unspecified),-6.2%
CCN1C(=O)c2ccccc2S(=O)(=O)c2ccc(C(=O)NCc3ccc(F)cc3)cc21,-3.9%
CC(=O)CSc1nnc2[nH]c(=O)cc(N)n12,-9.4%
Cc1ccc(N2CCN(C(=O)c3c(C)oc4ncnc(N5CCCCC5)c34)CC2)c(C)c1,-15.1%
CN1CCC(=C2c3ccccc3C=Cc3ccccc32)CC1,22.2%
S=C(Nc1ccc(Cl)c(Cl)c1)Nc1nnc(-c2ccncc2)o1,-9.0%
CCn1cc(C(=O)NCCc2ccc(OC)c(OC)c2)c(=O)c2cc(S(=O)(=O)N3CCCCCC3)ccc21,18.7%
CCN(CC)C(=O)Cn1c(=O)n(Cc2ccc(C(=O)NCc3ccccc3Cl)cc2)c(=O)c2ccccc21,-13.2%
C=C1CC2C3(C)C(O)CC(=O)C(C)(C)C3C(O)C(OC(C)=O)C2(C)C2C(=O)OC(C)(C(=O)OC)C(=O)C12C (stereo unspecified),-8.9%[10 µM]
CCNC(=O)CC1C(=O)N(c2ccc(C)cc2)C(=O)N1CCOC (stereo unspecified),-11.8%
Cc1nn(C(C)(C)C)c(OC(=O)C(C)(C)C)c1Sc1ccccc1,-20.5%
COc1cccc(-n2c(C)nc3cc(C(=O)O)ccc32)c1,?
CN(C)C(=O)Oc1cc(OC(=O)N(C)C)cc(C(O)CNC(C)(C)C)c1 (stereo unspecified),2.2%
CCn1cnnc1CC1CCN(C(=O)c2nccc3ccccc23)C1 (stereo unspecified),0.7%
CCOC(=O)c1ccc(-n2cccc2/C=C2\NC(=O)NC2=O)cc1,-19.5%
CC(C)(C)OC(=O)N1CCN(c2ccc(NCc3ccc(-c4ccc(C(C)(C)C)cc4)o3)cc2)CC1,-0.6%
CC(C)(C)OC(=O)N1CCC(c2c(C(=O)NCCN3CCC(Cc4ccccc4)CC3)cnn2-c2cccc(Cl)c2)CC1,12.2%
CCC(C(=O)N1CCC2(CC1)C(=O)N(CC(=O)NCC(C)C)CN2c1ccccc1)c1ccccc1 (stereo unspecified),i
O=C(CCc1ccccc1)N1CCC(Cc2nncn2-c2ccccc2)C1 (stereo unspecified),3.5%
CC(C)=CCCC1(C)Oc2cc3c(c4c2C2C(O4)C(C)(O)CCC21)CN(C(CCC(=O)O)C(=O)O)C3=O (stereo unspecified),?
CCOc1ccc(CCNC(=O)CSc2cc(=O)n(C)c3ccc(Cl)cc23)cc1OCC,-12.1%
CC(C)(C)OC(=O)N1CCN(c2ccc(NCc3ccc(-c4ccc(C#N)cc4)s3)cc2)CC1,i
COc1ccc(C(=O)N2CCCC3(COc4ccccc4C(=O)N3)C2)cc1 (stereo unspecified),i
CC1=CC(=O)[C@@]2(C(C)C)C[C@@H]12,30.5%
N#CN1CCC(NS(=O)(=O)c2ccc(F)cc2)CC1,?
Nc1ccc2oc(Cc3ccc(Cl)cc3)nc2c1,?
Cc1cccc(CCNC(=O)c2cc(S(=O)(=O)N3CCCCC3)c[nH]2)c1,-10.4%
CC(=O)Nc1nc(-c2ccc3c(c2)CCN3C(=O)c2ccccc2C)c(C)s1,-17.9%
COCC(=O)N[C@H]1CC[C@]2(C)CC[C@@H](C(C)C(=O)NC3CC3)[C@H](O)[C@H]2[C@@H]1C (stereo partly specified),-12.9%[39.2 µM]
O=C(NC1CCCCC1)c1ccc(CSc2nc3cccnc3n2Cc2ccccc2F)cc1,13.1%
O=C(O[C@H]1[C@H](Oc2ccc(O)cc2CO)O[C@H](CO)[C@@H](O)[C@@H]1O)c1ccccc1,-5.7%[10 µM]

# Among those listed so far, 9 contain an NH in an aromatic ring.
SMILES,nsP2pro primary
COc1ccc(-c2nc(SCC(=O)NCC3CCCO3)c(-c3ccc(Cl)cc3)[nH]2)cc1 (stereo unspecified),-5.5%
CO[C@@H]1[C@]2(O)C(=O)N3/C=C\C(C)(C)c4[nH]c5ccccc5c4/C=C\3C(=O)N2[C@]23[C@H](CO)C(C)(C)N2c2ccccc2[C@]13O,?
O=c1[nH]nc(OCCCc2ccc(Cl)cc2)c(NCc2cccnc2)c1Br,9.1%
Cc1nc2nc(NC(=O)C(C)(C)C)[nH]n2c(=O)c1Cc1ccccc1,-20.3%
NC1CCc2n[nH]c(=O)n2CC1 (stereo unspecified),4.7%
O=[N+]([O-])c1ccc(-c2nc(-c3ccc(F)cc3)c(-c3ccncc3)[nH]2)cc1,39.2%
CCC1CC2CN3CCc4c([nH]c5ccccc45)C(C(=O)OC)(C2)C13 (stereo unspecified),?
CC(=O)CSc1nnc2[nH]c(=O)cc(N)n12,-9.4%
Cc1cccc(CCNC(=O)c2cc(S(=O)(=O)N3CCCCC3)c[nH]2)c1,-10.4%

# New compounds follow:
canonical_smiles,nsP2pro primary
CC(C)(CC(=O)O)CC(=O)N1CCN2C(=O)N(CCc3cccs3)C(=O)[C@H]2C1,4.5%[39.2 µM]
COCCN(C)C[C@@H]1CN(C(=O)c2ccc(Cl)s2)C[C@@H]1CO,-1.9%
COc1ccc(Cl)cc1[C@@]1(F)C(=O)Nc2cc(C(F)(F)F)ccc21,1.3%
COc1ccc(C)cc1Nc1nc(N)c2cc(OC)c(OC)cc2n1,5.2%
Cc1ccc(NS(=O)(=O)c2ccc3[nH]c4c(c3c2)CCCC4)cc1N(C)C,-22.8%
Cc1cc(N[S+](=O)([O-])c2ccc(NC(=O)Cc3nc4ccc(Cl)cc4[nH]3)cc2)no1,i
NC(=O)c1c(NC(=O)CS(=O)(=O)c2ccc(Cl)cc2)sc2c1CCCC2,-6.4%
CC1CCc2onc(C(=O)Nc3ccc(Cl)cc3)c2C1 (stereo unspecified),-17.6%
COc1ccc(-c2nsc(NC(=O)COc3ccccc3OC)n2)cc1,-23.6%
CC(C)=C[C@@H]1[C@H](CO[C@@H]2O[C@H](CO)[C@@H](O)[C@H](O)[C@H]2O)C1(C)C,9.7%
COc1cncc(Nc2cnc3ccc(-c4ccccc4OC)nn23)c1,i
O=C1COc2c(CCNCCN(C(=O)CCNCCc3ccc(Cl)c(Cl)c3)C3CCCCC3)ccc(O)c2N1,46.6%[activator]
COc1ccc(C2Nc3ccccc3C(=O)N2Cc2ccc(C(F)(F)F)o2)cc1COc1c(C)cccc1C (stereo unspecified),0.9%
CCOc1ccc(CN2C(=O)c3ccccc3Sc3ccc(C(=O)N4CCN(C)CC4)cc32)cc1,-7.5%
CCn1cc(CCC(=O)NCc2ccccc2OC)c2ccccc21,-10.6%
CN(C)c1ccc(C(=O)NC[C@H]2O[C@@H](CO)[C@@H](O)[C@H]2N(C)CCc2ccccc2)cc1,-18.3%
CC(=O)O[C@@H]1[C@@H](O)[C@H](O[C@H]2CC[C@]34C[C@]35CC[C@]3(C)[C@@H]([C@@]6(C)CC[C@@H](C(C)(C)O)O6)[C@@H](O)C[C@@]3(C)[C@@H]5C[C@H](O[C@@H]3O[C@H](CO)[C@@H](O)[C@H](O)[C@H]3O)[C@H]4C2(C)C)OC[C@H]1O,-3.4%
COc1ccc2c(c1)c(=O)c(S(=O)(=O)c1ccccc1)cn2CC(=O)Nc1ccc2c(c1)OCO2,20.7%
CCc1cccc(NC(=O)C2CCCN(c3ncnc4onc(-c5ccc(F)cc5)c34)C2)c1 (stereo unspecified),-5.0%
N#Cc1ccc(NS(=O)(=O)c2ccc(NC(=O)Cc3ccc(F)c(Cl)c3)cc2)cc1,-12.8%
CCn1c(CO)nnc1C1CC(NC(=O)c2cnn(Cc3ccccc3)c2)C1 (stereo unspecified),i
Cc1ccc([C@@H]2O[C@H](CO)[C@@H](O)[C@H](O)[C@H]2O)cc1Cc1ccc(-c2ccc(F)cc2)s1,34.7%[activator]
O=C(CN1CCCc2nc(-c3ccncc3)ncc2C1=O)NCc1cc(F)ccc1F,3.2%
COc1cccc([S+](=O)([O-])N2CCN(CCn3nc4n(c3=O)CCCC4)CC2)c1,4.3%
Cc1ccccc1COC(=O)c1nn(-c2ccccc2)nc1N,3.9%
CCC1CCCCN1C(=O)CSc1nnc(-c2ccc(OC)c(OC)c2)o1 (stereo unspecified),-10.2%
c1ccc(OCc2nnc3n2N=C(c2ccccc2)CS3)cc1,4.1%&-3.9%

# Compound activity deposited in PubChem BioAssay by National Center for Advancing Translational Sciences (NCATS).

# This is a subset. The share of hits here may be higher or lower than overall.
